Compound activity from PubChem BioAssay.
T cruzi inh: blocks replication of Trypanosoma cruzi; T. cruzi beta-gal in NIH3T3, luminescence, 90 h; inhibition, % (no concentration beside the values); 300,000 compounds, 1.4% hits;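 active means mean inhibition across valid replicates above about 55%, limit read from the data; inconclusive means mean below that limit but half or more replicates reach it; inactive means mean below it, under half of replicates reach it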;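 further: signal also drops with host cell toxicity which is not excluded here; 0% = plate median of DMSO wells and 100% = zero luminescence signal; higher percent means less beta-gal luminescence so fewer parasites; stock transfer was 50 nL into about 50 µL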
Ecoli rRNA inh: inhibits bacterial ribosomal RNA function over humanized ribosomes. E. coli WT GFP vs humanized-ribosome RFP mutants, fluorescence, 24 h; stronger effect = lower value; DMSO median 0, no signal -100. GFP signal change (wild-type ribosome), % (test concentration not listed). 350,000 compounds, 1.6% hits. AID 720706;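 active means significant combined selectivity score with lowered wild-type GFP, culture density cut under 30%, mutant RFP and density less affected; inactive means any of these conditions unmet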; further: one replicate is shown; some compounds called inactive have numbers as strong as hits
Calb FLC: affects C. albicans growth with fluconazole | growth inhibition, % (test concentration not listed) | 300,000 compounds, 0.57% hits | AID 1979 | C. albicans CaCi-2 (fluconazole-resistant clinical isolate) + fluconazole, Alamar Blue growth, 48 h;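 active means most replicates above 75%; inconclusive means exactly half above 75%; inactive means most below 75%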;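 further: all wells also contain fluconazole at 8 µg/ml as a sub-toxic cotreatment; 0% = median of DMSO wells and 100% = median of geldanamycin control wells; wells of about 8 µL received 7.5 nL stock; the first replicate is given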
AF4-AF9 inh: inhibitors of human MLL-AF4/AF9 interaction; 350,000 compounds, 0.47% hits; inhibition, % at 10 µM; AlphaScreen, biotin-AF4 peptide binding to FLAG-AF9; P42568;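 active means every replicate reaching a set inhibition limit, whatever the replicate mean, cut at about 25% in these data; inconclusive means mean inhibition reaches that limit but some replicates miss it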;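 further: 0% = plate neutral control median and 100% = total signal loss; the record names both 10 and 1 µM as test concentration; the first replicate is given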
Target sequence (P42568 whole entry, looked up): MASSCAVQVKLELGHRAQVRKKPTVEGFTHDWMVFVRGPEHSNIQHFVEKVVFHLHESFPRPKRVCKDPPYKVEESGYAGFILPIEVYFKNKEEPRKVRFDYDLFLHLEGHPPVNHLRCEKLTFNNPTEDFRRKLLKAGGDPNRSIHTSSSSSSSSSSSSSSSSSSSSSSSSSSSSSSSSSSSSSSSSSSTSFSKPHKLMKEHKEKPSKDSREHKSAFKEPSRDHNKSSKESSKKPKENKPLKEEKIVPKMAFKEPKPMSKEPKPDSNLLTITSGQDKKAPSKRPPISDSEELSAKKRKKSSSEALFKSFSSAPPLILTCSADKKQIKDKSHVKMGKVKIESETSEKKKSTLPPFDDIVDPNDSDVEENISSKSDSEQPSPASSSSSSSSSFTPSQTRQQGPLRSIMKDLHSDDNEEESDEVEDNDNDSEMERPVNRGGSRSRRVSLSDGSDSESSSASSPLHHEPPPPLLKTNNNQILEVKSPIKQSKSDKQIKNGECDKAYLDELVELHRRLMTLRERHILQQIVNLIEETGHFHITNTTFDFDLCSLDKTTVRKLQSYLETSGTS
Beta apoptosis: blocks beta cell apoptosis. INS-1E cytokine-induced death, ATP luminescence, 48 h; percent of positive-control rescue, neutral wells zero. protection from apoptosis, % (concentration not given with the values). 300,000 compounds, 0.8% hits. AID 435005;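 active means all replicates at 75% or more, or half of them and the mean; inconclusive means half reach 75% but not the mean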;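 further: 0% = cytokine-treated negative control wells and 100% = positive control rescue; higher means more ATP so stronger rescue from cytokine killing; wells of about 40 µL received 100 nL stock; the first replicate is given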
Bfl-1 A1 inh: inhibitors of the anti-apoptotic protein A1, read as caspase activation; MEF A1-2A-BIM cells, Caspase-Glo 3/7 luminescence, 3 h; percent of clofoctol response, vehicle zero; caspase activation, % (no concentration beside the values); 330,000 compounds, 0.066% hits; AID 2462;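 active means over half of replicate activation scores above 10%, or exactly half above 10 with the replicate mean above 10; inconclusive means replicate mean below 10 yet half the replicates above 10; inactive means over half of replicates below 10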;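 further: wells of about 30 µL received 50 nL stock; many hits fall short of the cut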
RanGTP-Imp inh: inhibitors of RanGTP-importin-beta interaction, primary screen, biochemical, FRET, CFP-Ran, YFP-importin-beta, homogeneous. cell-free CFP-Ran/YFP-importin-beta FRET ratio. inhibition, % (no concentration beside the values). 300,000 compounds, 1.1% hits. AID 2216;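 active means most replicates above 15%; inconclusive means exactly half above 15%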;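 further: 0% = DMSO wells and 100% = Ran loaded with GDP instead of GTP; wells of about 40 µL received 100 nL stock; the first replicate is given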
Vif A3G: HIV-1 Vif–A3G interaction blockers – biochemical, TR-FRET, GST-Vif 1-94, biotin-A3G peptide, dose response retest, primary screen (AID 1117319) | TR-FRET GST-Vif / biotin-A3G peptide binding; higher % means a stronger effect; test concentration not given here; strong numbers were not always called active | inhibition, %; hits with a dose series show IC50 in µM | 260,000 compounds, 0.57% hits;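 active means above the screen mean plus three standard deviations and confirmed in dose response; inconclusive means results disagree or hit not tested in dose response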;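 further: Vif residues 1-94 fused to GST binding biotinylated APOBEC3G peptide 110-148; 0% = full assay without inhibitor and 100% = GST in place of GST-Vif; retest series ran down from 100 µM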
Ecoli rRNA inh OD600: recorded beside Ecoli rRNA inh, whose call it bears; OD600 change, %; measured here: OD600 growth;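 optical density of the mix in the first replicate; 0 = DMSO median and -100 = no signal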
Ecoli rRNA inh RFP: recorded beside Ecoli rRNA inh, whose call it bears; RFP signal change, %; measured here: RFP humanized mutant strains;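 first replicate; 0 = DMSO median and -100 = no signal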
* = called active by the depositor; u = inconclusive; x = not tested or not shown; & = joins results of further samples. Not all compounds are listed, so the mix of outcomes need not match the whole.

Results follow in this order: T cruzi inh, Ecoli rRNA inh, Ecoli rRNA inh OD600, Ecoli rRNA inh RFP, Calb FLC, AF4-AF9 inh, Beta apoptosis, Bfl-1 A1 inh, RanGTP-Imp inh, Vif A3G
> Cc1cc(C)n(-c2nc(C)nc(NCc3ccccc3)n2)n1
 : -32, x, x, x, -5, x, 7, 0.3, -4.1, 9%
> CC1CCCN(CCCNC(=O)C2CC(=O)N(c3ccc(F)c(Cl)c3)C2)C1 (stereo unspecified)
 : 8, x, x, x, -3, x, 0, 0.7, -2.2, 9%
> CC(C)c1nc2oc3c(NCc4cccnc4)ncnc3c2c2c1CCC2
 : 15, x, x, x, -5, x, 0, 0.0, u, -4%
> CC1(C)Cc2nc3sc(C(=O)NCCCO)c(N)c3cc2CS1
 : 10, 17, 6, 3.9, 38, -2.6, -1, -1.8, -0.1, 0%
> COc1cccc(CNC(=O)Cc2c(C(=O)O)[nH]c3ccccc23)c1
 : -18, x, x, x, -5, x, -3, -0.9, -0.3, 13%
> CC(=O)Nc1cc(NC(=O)C2C3C=CC(C3)C2C(=O)O)ccc1Cl (stereo unspecified)
 : -5, x, x, x, -4, x, -1, -0.1, -1.5, 11%
> COc1cc2cc(CN(CCCN3CCOCC3)Cc3nnnn3Cc3ccccc3)c(=O)[nH]c2cc1OC
 : 6, 6, -1, 5.5, -10, 2.0, -8, 0.3, -5.5, -4%
> COc1ccc(C(=O)NCCN2C(=O)S/C(=C\c3cccnc3)C2=O)cc1[N+](=O)[O-]
 : -3, -3, 0, -5.9, -3, -1.7, 2, -0.5, 6.2, 0%
> N/C(=N\OC(=O)c1cccs1)c1cccc([N+](=O)[O-])c1
 : -4, 13, 12, 2.5, -6, 0.8, 5, 0.1, -0.2, -10%
> COC(=O)c1ccc(OC(=O)/C=C/c2ccco2)cc1
 : -9, -2, 3, 2.2, 6, 3.3, -6, 0.4, -2.5, x
> O=C(CCS(=O)(=O)Cc1ccc(Cl)cc1)NCCCN1CCOCC1
 : 0, 16, 11, -9.6, 2, -68, -5, 1.2, -1.5, 7%
> O=C(NCc1ccccn1)c1cc2ccccc2oc1=O
 : -8, x, x, x, 5, x, -6, 0.1, -2.0, 2%
> COc1ccc(/C=C/C(=O)OCC(=O)NC2CCCC2)c(OC)c1
 : x, 1, -6, -0.5, x, -2.6, -2, 0.5, x, -6%
> Clc1ccc(Cc2noc(Cc3ccccc3)n2)cc1Cl
 : -5, x, x, x, -3, x, -1, -0.4, 0.3, 5%
> CCOC(=O)C1(Cc2ccccc2Cl)CCN(S(C)(=O)=O)CC1
 : -3, -13, -8, -1.3, 17, -1.7, -8, -0.6, u, 1%
> Cc1onc(-c2ccccc2Cl)c1C(=O)Nc1cccc2nsnc12
 : 20, x, x, x, -2, x, 4, -0.9, 3.2, -16%
> COc1ccc(N2CCn3c2nc2c3c(=O)n(CCCc3ccccc3)c(=O)n2C)c(OC)c1
 : 25, 3, -1, 4.3, -17, x, 55, -0.8, -2.6, 1%
> COCCCn1c(-c2cccc(Cl)c2)nc2c1c(=O)[nH]c(=O)n2Cc1ccccc1
 : 18, 6, -2, -0.4, -8, -0.3, -9, -0.3, -1.7, 5%
> COCCNC(=O)c1onc(CSc2ccccc2)c1C(=O)O
 : -2, 1, 13, 10, 4, -21, 1, 0.1, -1.7, 0%
> CC(C)(C)c1nn(-c2ccccc2)c2[nH]c(=O)c(CNCc3ccco3)cc12
 : -19, x, x, x, -5, x, 0, 0.2, -0.8, 6%
> Cc1ccccc1N(CC(=O)Nc1ccc(F)cc1)S(C)(=O)=O
 : -8, x, x, x, -1, x, -4, 1.1, -2.9, 18%
> CCOc1cccc(OCCOCCNC(C)(C)C)c1
 : 13, 20, 5, -3.2, -23, -3.6, -1, 0.0, -1.1, -4%
> COc1ccc(C(=O)NNC(=O)CSc2nc3c([nH]2)c(=O)n(C)c(=O)n3C)cc1
 : -8, 13, 7, -2.1, -16, -0.6, 3, 2.2, -0.7, -12%
> CCOC(=O)NCC(C#CCN(CC)CC)N(CC)CC (stereo unspecified)
 : -4, x, x, x, -10, x, 0, 0.1, 5.2, 3%
> Cc1ccc(Nc2nc(N)nc(CSc3nncn3C)n2)cc1
 : -7, x, x, x, -19, x, 1, 0.5, 7.8, 13%
> CC1(C)CC2(CCO1)OC(=O)CC2C(=O)Nc1c(Cl)cccc1Cl (stereo unspecified)
 : -9, 4, -3, 1.4, 0, -2.2, 4, 0.5, -1.4, 8%
> O=C(Nc1cccc(-c2nc3cccnc3s2)c1)C1c2ccccc2Oc2ccccc21
 : 22, 10, 6, -0.3, 2, 4.8, x, x, 0.5, -30%
> Cc1cccc(NC2=C(C#N)C(=O)NC3(CCCC3)S2)c1
 : -1, 0, 9, 3.3, 20, 2.1, 3, -1.4, -5.0, 5%
> COc1ccc2c3c1OC1CC(O)C=CC31CCN(C)C2 (stereo unspecified)
 : -11&-3, 11&8, 12&4, -2.5&-1.0, 8&1, -5.6&-1.2, -6&-3, -0.2&0.3, 0.9&1.8, x
> Cn1c(CC(=O)Nc2ccccc2F)nnc1SCC(=O)NC1CCCC1
 : -25, -2, 12, -0.8, -10, -0.1, -5, -0.3, 0.0, x

Molecules listed so far that have a thiophene ring, fused or not:
Results follow in this order: T cruzi inh, Ecoli rRNA inh, Ecoli rRNA inh OD600, Ecoli rRNA inh RFP, Calb FLC, AF4-AF9 inh, Beta apoptosis, Bfl-1 A1 inh, RanGTP-Imp inh, Vif A3G
> CC1(C)Cc2nc3sc(C(=O)NCCCO)c(N)c3cc2CS1
 : 10, 17, 6, 3.9, 38, -2.6, -1, -1.8, -0.1, 0%
> N/C(=N\OC(=O)c1cccs1)c1cccc([N+](=O)[O-])c1
 : -4, 13, 12, 2.5, -6, 0.8, 5, 0.1, -0.2, -10%

New compounds follow.
Results follow in this order: T cruzi inh, Ecoli rRNA inh, Ecoli rRNA inh OD600, Ecoli rRNA inh RFP, Calb FLC, AF4-AF9 inh, Beta apoptosis, Bfl-1 A1 inh, RanGTP-Imp inh, Vif A3G
> Cc1ncoc1C(=O)N1CCCC(C(=O)c2ccc(C(F)(F)F)cc2)C1 (stereo unspecified)
 : 4, -3, -5, 4.1, -23, 1.9, -1, -0.3, 7.9, -4%
> CN(Cc1ccccc1)c1nc2c(c(=O)[nH]c(=O)n2C)n1Cc1ccccc1Cl
 : 27, x, x, x, -4, x, 4, 1.0, -6.1, -1%
> COC(CNC(=O)C1CCN(C(=O)c2cc3oc(C)cc3n2Cc2c(F)cccc2Cl)CC1)OC
 : 10, 34, 8, -2.1, 3, 1.7, 4, 1.3, 1.8, -5%
> COc1ccc(S(=O)(=O)N2CCc3ccccc32)cc1C(=O)Nc1ccc(C(N)=O)cc1
 : 11, -13, -4, -1.7, x, -1.7, 58, 0.0, -3.7, x
> COC(=O)N[C@@H]1C[C@H]2[C@@H]3CC[C@H]4C[C@@H](OC)CC[C@]4(C)[C@H]3CC[C@]12C
 : x, -17, -16, -10, x, -2.4, -4, 0.0, x, x
> Cn1c(=O)c(C(=O)CN2CCc3ccccc32)c(N)n(Cc2ccccc2)c1=O
 : -9, x, x, x, -6, x, -3, 0.3, -0.6, x
> COc1cccc(CN2CCN(Cc3cccn3-c3cccnc3)CC2CCO)c1 (stereo unspecified)
 : 9, -3, 1, 0.2, -19, 5.8, -8, -0.2, 5.7, -7%
> CNC(=O)NC(=O)CSc1nc2sccc2c(=O)n1-c1ccccc1
 : -15, 8, 14, 1.7, -18, 3.1, -9, 0.6, -4.5, x
> Cc1cc(C)cc(N2CCCC2=O)c1
 : -19, x, x, x, -10, x, 1, -0.1, -3.6, -3%
> CCCCOC(=O)C1=C(C)NC(=O)NC1c1ccc([N+](=O)[O-])s1 (stereo unspecified)
 : 18, x, x, x, 2, x, -3, -0.4, u, x
> CCCCn1c(N)c(N(CC(C)C)C(=O)c2cccc(S(=O)(=O)N(C)c3ccc(C)cc3)c2)c(=O)[nH]c1=O
 : 3, 13, 1, 1.3, -9, -0.3, x, 1.1, -1.5, -4%
> FC(F)(F)c1cccc(Nc2cc(-c3ccccc3)nc3ncnn23)c1
 : -3, 7, 17, -0.6, -5, -5.6, 3, -1.4, -0.6, x
> C=C(C)C(=O)Nc1cccc(C2=NOC3(C2)C[C@@H](C(N)=O)N(C(=O)/C(C)=C/C)C3)c1 (stereo partly specified)
 : -11, 3, 10, -4.0, -4, -69, -11, -0.7, 0.5, -1%
> CCn1c(SCC(=O)N2CCOCC2)nc2c([nH]c3ccccc32)c1=O
 : -16, -11, -2, -2.9, 2, 0.2, -6, 0.6, 4.9, x
> COc1ccc([C@H]2CC(=O)C=C(c3ccc(F)cc3OCc3ccccc3)C2)cc1
 : x, 6, 7, -1.4, x, -1.2, 20, 0.6, x, x
> COc1cccc(C(=O)NCC(=O)NCc2cc(=O)n(C)c(=O)n2C)c1OC
 : -9, -16, 12, 16, x, -0.5, 2, 0.1, u, x
> COc1ccc([N+](=O)[O-])cc1N(CC(=O)NCCSc1ccc(C)cc1)S(C)(=O)=O
 : -7, 5, -1, -0.2, 2, 1.8, -1, 0.5, 1.0, -3%
> Cc1ccc(-c2noc(CNC(=O)c3ccoc3C)n2)cc1
 : -2, -1, -11, -3.1, -13, -4.4, 3, -0.2, 0.8, x
> COc1cc(C2C(C#N)=C(C)NC(C)=C2C#N)cc(OC)c1OC
 : 13, x, x, x, -9, x, -3, 1.2, 0.8, 7%
> COc1ccccc1CCN=C(N)NS(=O)(=O)c1cccs1
 : -11, 5, 6, -1.2, -8, -3.6, -6, 1.0, -3.7, x
> COC(=O)CCCC(=O)NC(C)c1cnn(-c2ccccc2C)c1C (stereo unspecified)
 : -3, 12, 8, 1.0, -31, -5.4, -6, 0.3, -1.7, 6%
> CCOC(=O)CNC(=O)COc1coc(CN2CCN(c3ccccc3F)CC2)cc1=O
 : -7, 7, 7, -1.3, 2, -1.5, x, 0.1, -0.2, x
> COC(=O)CSc1nc2c(c(C3CC=CCC3)c1C#N)CCC2 (stereo unspecified)
 : -20, x, x, x, 18, x, -1, 0.1, 2.1, -5%
> CCn1c2ccc(C)cc2c2nnc(SCCN3CCOCC3)nc21
 : 22, -13, -17, -3.9, -5, 0.6, -8, 0.2, u, x
> O=c1[nH]oc(O)c1-c1ncc(C(F)(F)F)cc1Cl
 : -11, 1, 3, 0.2, 0, -0.6, 0, 0.5, 1.7, -4%
> N=C1/C(=C/c2ccc(OCc3ccccc3F)cc2)C(=O)N=C2SC(CC(=O)N3CCOCC3)=NN12
 : -10, -1, 3, 6.4, 25, -0.5, -1, -0.5, u, x
> CCn1c(SCC(=O)N2CCCCCC2)nc2c([nH]c3ccccc32)c1=O
 : 28, 3, 5, 2.9, 3, 0.1, 12, 0.2, -0.2, -14%
